A1 apoptosis 2 = A1 inhibitors via caspase activation, primary screen, cell-based, luminescence, HTS, two replicates. 24,000 tested, under 10 active. caspase activation, % (test concentration not listed). MEF A1-2A-BIM cells, caspase-Glo luminescence, 3 h; percent of clofoctol response, DMSO zero; in the data active means caspase activation above about 5.9%;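 further: wells of about 30 µL received 50 nL stock; the first replicate is given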
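System: mouse embryonic fibroblasts co-expressing A1 and BIM (A1-2A-BIM), primed for A1 dependence; amount: 2500 cells/well; doses: 50 nL pinned compound; schedule: cells settled overnight, compound exposure 3 h at 37 °C, 5% CO2; detection: Caspase-Glo 3/7 luminescence, 1 h at room temperature; read-out: Caspase-3/7 activation, seen as rise in luminescence signal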
Starred values were filed as active, the others as inactive. A portion of the library; rates above refer to the full screens.

1) COc1ccc(OC(=O)N(C)C[C@H]2OCc3cnnn3CCCC(=O)N([C@H](C)CO)C[C@H]2C)cc1
  A1 apoptosis 2 = 0.0
2) COc1cc2cc(c1Cl)N(C)C(=O)CC(OC(=O)C(C)C)C1(C)OC1C(C)C1CC(O)(NC(=O)O1)C(OC)/C=C/C=C(/C)C2 (stereo unspecified)
  A1 apoptosis 2 = 1.6
3) CC12CCC3C(CCC4C(=O)C(=O)CCC43C)C1CCC2=O (stereo unspecified)
  A1 apoptosis 2 = 0.8
4) C[C@@H]1CN([C@@H](C)CO)C(=O)CCCn2cc(nn2)CO[C@H]1CN(C)C(=O)Oc1ccc2ccccc2c1
  A1 apoptosis 2 = -0.2
5) Cc1ccc(OC(=O)N(C)C[C@H]2OCc3cnnn3CCCC(=O)N([C@H](C)CO)C[C@@H]2C)cc1
  A1 apoptosis 2 = -0.5
6) Cc1ccc(OC(=O)N(C)C[C@@H]2OCc3cnnn3CCCC(=O)N([C@H](C)CO)C[C@H]2C)cc1
  A1 apoptosis 2 = 0.1

Assay outcomes as filed in PubChem.
